Ecoli growth – blocks Escherichia coli growth. OD600, 23 h; active compounds read low. OD600 absorbance (concentration not given with the values). 330,000 tested, 0.21% active. AID 1053175;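 active means OD600 absorbance below the run mean of sample wells minus 3.6 SD, in any replicate, cut at about 0.56 in these data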;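 further: stock transfer was 300 nL into about 60 µL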
ALR inh – human ALR oxidase inhibition via reduced H2O2; P55789; purified ALR, DTT oxidation, H2O2 HRP-luminol luminescence; inhibition, % (no concentration beside the values); 290,000 tested, 3.8% active; AID 485317;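 active means mean and each replicate at 75% or more; inconclusive means only one of the two met; inactive means neither met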;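 further: stock transfer was 7.5 nL into about 7.5 µL; 0% = neutral wells and 100% = wells with inactivated enzyme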
B2AR ag – human beta-2 adrenergic receptor agonism by FAP; Am2.2-beta2AR cells, FAP receptor internalization, flow cytometry; reference of the scale not given here; 340,000 tested, 0.43% active; response, % (concentration not given with the values); AID 504454; P07550;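 active means response above a set limit, near 3 SD of response in nonfluorescent compounds, cut at about 42% in these data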;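 further: stock transfer was 100 nL into about 11 µL; a reference agonist was the positive control; negative values mostly stem from fluorescent compounds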
UCH37 inh – inhibitors of human deubiquitinating enzyme UCH37. Q9Y5K5. 330,000 tested, 0.33% active. purified proteasome/UCH37, Ub-AMC cleavage fluorescence. inhibition, % (no concentration beside the values);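 active means mean of two replicates above 20%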;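 further: 0% = compound-free wells with enzyme and 100% = wells lacking proteasome; stock transfer was 100 nL into about 20 µL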
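Reagent: Ub-AMC substrate; assay system: Proteasome-associated human UCH37 deubiquitinase; controls: no-proteasome and no-compound wells; read-out: % inhibition of Ub-AMC cleavage fluorescence; timing: 30 min preincubation with enzyme, 25 min cleavage at room temperature; signal: AMC fluorescence from Ub-AMC cleavage, excitation 355 nm, emission 460 nm; buffer or medium: Tris-HCl pH 7.4 plus ovalbumin, ATP-MgCl2, DTT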
FGF22 binding – binders of recombinant human FGF22 by thermal shift; Q9HCT0; SYPRO orange fluorescence; percent of sucrose octasulfate shift, DMSO zero; calls only at 9.99 µM; 340,000 tested, 1.5% active;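 active means melting point raised past a set limit in the mean and every replicate; inconclusive means no clear call; three in four hits are not shown here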
HNF4A DNA FP – change in binding of human HNF4 alpha to DNA. P41235. HNF4a-FITC DNA binding, fluorescence polarization, 1 h. activity change, % at 10 µM. 360,000 tested, 0.3% active. AID 1224865; in the data active means activity change above about 30%, passing the limit was not always enough;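 further: controls were the assay level and a saturating level of protein; the project sought stronger binding though the title names inhibitors; some compounds called inactive have numbers as strong as hits; positive values seem to mean higher polarization but the record does not say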
LANA-H2B inh – blocks KSHV LANA binding to histone H2A/H2B | Q9QR71 | cell-free LANA-H2A/H2B peptide, fluorescence polarization | inhibition, % (no concentration beside the values) | 320,000 tested, 0.6% active | AID 2629; in the data active means inhibition mostly above about 10%, no sharp cut-off; inactive means mostly below about 6.7%;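 further: stock transfer was 7.5 nL into about 10 µL; 0% = median of vehicle wells and 100% = median of positive control wells; one replicate is shown; the record names a cut of 25% in any replicate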
Target sequence (Q9QR71 whole entry, looked up): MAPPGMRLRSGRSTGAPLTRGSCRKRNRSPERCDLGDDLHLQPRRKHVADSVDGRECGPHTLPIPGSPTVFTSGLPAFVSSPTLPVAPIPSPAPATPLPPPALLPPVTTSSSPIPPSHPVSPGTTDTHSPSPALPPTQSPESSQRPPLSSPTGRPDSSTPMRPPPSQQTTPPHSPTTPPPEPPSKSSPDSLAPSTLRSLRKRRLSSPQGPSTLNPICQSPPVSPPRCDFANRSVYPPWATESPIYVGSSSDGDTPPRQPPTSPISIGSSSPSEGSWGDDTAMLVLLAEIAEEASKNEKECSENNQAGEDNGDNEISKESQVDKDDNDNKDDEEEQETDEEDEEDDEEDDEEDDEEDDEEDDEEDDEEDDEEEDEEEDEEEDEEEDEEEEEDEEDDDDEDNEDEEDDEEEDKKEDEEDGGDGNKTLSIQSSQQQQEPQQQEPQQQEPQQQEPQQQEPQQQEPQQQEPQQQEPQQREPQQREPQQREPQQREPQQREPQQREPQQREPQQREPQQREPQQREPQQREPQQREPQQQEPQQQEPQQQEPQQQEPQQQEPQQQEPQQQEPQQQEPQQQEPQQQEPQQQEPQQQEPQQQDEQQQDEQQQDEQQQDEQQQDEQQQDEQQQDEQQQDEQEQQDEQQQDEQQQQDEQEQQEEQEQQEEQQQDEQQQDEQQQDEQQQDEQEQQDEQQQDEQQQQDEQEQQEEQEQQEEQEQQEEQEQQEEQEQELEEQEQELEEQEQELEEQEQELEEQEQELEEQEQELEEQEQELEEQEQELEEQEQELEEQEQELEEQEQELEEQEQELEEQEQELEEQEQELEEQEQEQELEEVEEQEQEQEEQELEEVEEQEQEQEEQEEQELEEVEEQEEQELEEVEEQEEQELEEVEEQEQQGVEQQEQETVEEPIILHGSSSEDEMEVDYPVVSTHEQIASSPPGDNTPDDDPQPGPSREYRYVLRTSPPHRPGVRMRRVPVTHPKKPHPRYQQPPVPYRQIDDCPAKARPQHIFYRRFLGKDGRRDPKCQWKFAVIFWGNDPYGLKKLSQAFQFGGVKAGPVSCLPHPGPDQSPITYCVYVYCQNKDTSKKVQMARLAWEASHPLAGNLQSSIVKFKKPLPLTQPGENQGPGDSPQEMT
Numbers without * were called inactive; i = inactive; ? = inconclusive; nt = not tested or not shown.

SMILES	Ecoli growth	ALR inh	B2AR ag	UCH37 inh	FGF22 binding	HNF4A DNA FP	LANA-H2B inh
COc1ccc(C2NC(c3ccc(OC)c(OC)c3OC)C(C)C(=O)C2C)c(OC)c1OC (stereo unspecified)	0.729	-1.3	7.1	-1.5	nt	2.1	-0.7
COc1cc(C(=O)NC(=S)Nc2ccc3[nH]c(=O)[nH]c3c2)cc(OC)c1OC	0.707	-1.6	4.8	2.0	i	-2.7	0.7
N#Cc1c(-c2ccc(Cl)cc2)c(-c2ccc(Cl)cc2)nn(CCO)c1=O	nt	nt	0.7	nt	i	1.4	nt
Cc1ccc2c(c1)N(CCC(=O)NCc1cccs1)C(=O)C(C)O2 (stereo unspecified)	0.675	10.7	-7.1	1.2	nt	1.0	3.1
CN(C)C(=O)N1CCC(C(=O)NC2CCCCCCC2)CC1	0.704	-13.0	-7.2	2.0	nt	0.0	-2.7
COc1cc(C(=O)OCc2cccc(OC)c2OC)ccc1OCC(=O)N1CCOCC1	0.626	-20.3	-2.1	-0.3	i	3.2	4.0
COc1ccc(-n2c(=S)[nH]c3cc(C(=O)Nc4ccccc4OC)ccc3c2=O)cc1	0.696	0.0	nt	0.7	nt	nt	1.7
COC(=O)c1cn(NC(=O)c2ccc(F)cc2)c(=O)c2ccccc12	0.69	-5.6	-2.0	1.9	nt	1.9	0.3
CC(C)C(c1nnnn1C(C)(C)C)N1CCC(Cc2ccccc2)CC1 (stereo unspecified)	0.653	5.5	6.1	0.2	i	6.3	i
CCOc1ccccc1NC(=O)c1cc(=O)[nH]c2ccc(S(=O)(=O)N3CCOCC3)cc12	0.691	nt	-6.0	5.0	i	1.9	-4.0

Two of these compounds in another layout.
compound | Ecoli growth | ALR inh | B2AR ag | UCH37 inh | FGF22 binding | HNF4A DNA FP | LANA-H2B inh
Cc1ccc2c(c1)N(CCC(=O)NCc1cccs1)C(=O)C(C)O2 (stereo unspecified) | 0.675 | 10.7 | -7.1 | 1.2 | nt | 1.0 | 3.1
CN(C)C(=O)N1CCC(C(=O)NC2CCCCCCC2)CC1 | 0.704 | -13.0 | -7.2 | 2.0 | nt | 0.0 | -2.7

(cont.)
SMILES	Ecoli growth	ALR inh	B2AR ag	UCH37 inh	FGF22 binding	HNF4A DNA FP	LANA-H2B inh
Cc1cc2nnc(SC(C)C#N)n2c2ccccc12 (stereo unspecified)	0.702	16.4	3.5	-5.6	nt	-0.4	-1.6
COc1cc(/C=N/NC(=O)C(N)=O)ccc1OCC(=O)N1C(C)CCCC1C (stereo unspecified)	nt	1.1	-2.9	nt	i	-3.9	0.5
O=C(c1ccccn1)N1N=C2/C(=C/c3ccc(F)cc3)CCCC2C1c1ccc(F)cc1 (stereo unspecified)	nt	nt	-4.1	2.4	nt	-1.2	nt
N#Cc1ccccc1NC(=O)CSc1ccc([N+](=O)[O-])cn1	0.69	-10.3	2.0	7.2	i	-1.0	-12.1
FC(F)Oc1ccccc1NC(=S)Nc1cccc(Cl)c1Cl	0.623	1.7	-1.4	3.2	nt	0.1	-5.8
COc1ccc(Oc2nc(SC)nc3ccccc23)cc1	0.773	-1.3	-11.7	1.8	nt	-1.1	0.9
CSc1nc(Cc2ccc(Cl)cc2)nc2ccccc12	0.67	-6.6	-5.7	-1.8	nt	4.0	0.2
CCOC(=O)c1ccc(CSc2nnc(C)n2N)o1	0.736	0.4	3.1	-1.1	nt	-2.8	-0.3
COCCN1C(=O)N(c2cccc(OC)c2)C(=O)C1CC(=O)Nc1cccc(F)c1 (stereo unspecified)	0.703	5.6	-4.8	5.5	i	3.9	2.2
C=CCn1c(SCC(=O)O)nc2sc(CC)cc2c1=O	0.699	-4.7	0.3	2.8	i	-0.7	2.6
O=C(O)c1ccc(N=Nc2c(O)[nH]c3ccc(Br)cc23)cc1	nt	nt	8.4	nt	i	1.4	4.2
Cc1cccc(C)c1Nc1nnc(SC/C(O)=C(\C#N)c2nc3ccccc3[nH]2)s1	0.678	?	-0.9	-6.8	i	7.7	1.6
O=C(Nn1c(-c2ccc(Cl)cc2)nc2ccccc2c1=O)c1cccnc1Cl	0.683	-17.4	-158.8	-0.8	nt	-1.4	2.3
COC(=O)c1ccc(CNC(=O)COC(=O)C23CC4CC(CC(C4)C2)C3)cc1	0.608	-39.0	1.8	1.2	i	2.1	0.1
CCOC(=O)N1CCN(S(=O)(=O)c2ccc3c(c2)oc(=O)n3C)CC1	0.717	-8.9	-20.2	5.1	nt	3.5	2.7
CCOc1ccc2nc(NC(=O)NC3CCCCC3)sc2c1	nt	nt	4.2	nt	i	2.1	11.7
O=C(Cc1ccc(F)cc1)Nc1ccc(Cl)cn1	0.626	nt	-10.0	4.2	i	-0.3	-3.8
CC(=O)Nc1ccc(N(C(=O)Cn2nnc3ccccc32)C(C(=O)NC2CCCC2)c2ccc(O)c(O)c2)cc1 (stereo unspecified)	0.675	92.5*	-0.8	0.8	i	3.5	-11.2
Cc1cccc(-c2nnc(SCC(=O)NC3CC3)n2C)c1	0.667	-17.2	-5.4	4.9	i	-0.9	12.3*
O=C1NC(=S)SC1=Cc1ccccc1Cl	0.608	nt	25.1	9.5	nt	19.9	nt
CCN(CC)Cc1c(NC(=O)c2ccccc2)sc(C)c1C	0.681	0.9	5.6	2.6	i	-2.6	7.5
CCOc1ccccc1NC(=O)C(C)N1C(=O)c2ccccc2S1(=O)=O (stereo unspecified)	0.63	9.7	2.7	1.9	i	-1.8	2.4
COc1cccc(-c2cc(C(=O)Nc3c(C)nn(Cc4ccccc4C)c3C)no2)c1	0.681	0.4	3.6	-0.6	nt	0.3	-3.2
Cc1nc(C)c(C(=O)C2=C(O)C(=O)N(CCCn3ccnc3)C2c2ccccc2)s1 (stereo unspecified)	0.77	nt	-4.8	7.9	nt	4.0	nt
O=C(NCC(=O)N1CCCC1)c1ccccc1F	0.694	0.8	4.2	3.7	i	1.6	2.0
CCOC(=O)C1CCCN(C2CC(=O)N(c3ccc(C)c(C)c3)C2=O)C1 (stereo unspecified)	0.744	1.9	0.4	3.3	nt	2.3	-1.0
Cc1c(O)nc(SCC(=O)Nc2cccc(C(F)(F)F)c2)n(-c2ccccc2)c1=O	0.699	99.4*	3.9	1.5	i	0.6	-8.9
CCOc1ccc(S(=O)(=O)N2CCCCC2)cc1NC(=O)C1=COCCO1	0.621	-22.1	-1.9	0.6	i	3.2	2.4
Cc1ccccc1CSCc1nc2ccccc2[nH]1	0.644	-9.4	-17.5	1.5	i	1.2	-1.4
O=C(CNS(=O)(=O)c1ccc(Cl)cc1)N/N=C/c1ccco1	nt	0.2	-1.0	nt	i	-0.7	6.4
CCOC(=O)C1(Cc2ccccc2)CCN(Cc2cc(=O)c3ccccc3[nH]2)CC1	0.637	-9.2	-11.9	-6.3	i	2.0	-1.5
O=C(OCC(=O)c1ccc(S(=O)(=O)N2CCCC2)cc1)C1=COCCO1	0.727	-13.3	-1.2	3.2	nt	-3.0	1.0
O=C(Cn1nnc(-c2ccncc2)n1)Nc1ccc2c(c1)CCC2	0.729	-4.2	-7.5	0.0	nt	1.7	0.8
O=S(=O)(NC1CCCCC1)c1ccc(N2CCOCC2)nc1	0.631	-6.7	-6.2	6.1	i	5.0	1.7
Cc1onc(NC(=O)c2ccc([N+](=O)[O-])o2)c1Br	nt	-8.7	-5.5	nt	i	4.7	-2.8
Oc1c(N=NC(=S)Nc2ccccc2F)c2ccccc2n1Cc1cccc(Cl)c1	0.669	nt	4.9	10.0	i	-2.7	-0.9
COc1ccc(-c2c(C)nn3c(N4CCC(C(=O)NCCN(C)C)CC4)cc(C)nc23)cc1OC	0.733	nt	5.6	6.8	nt	2.3	0.6
CC(=O)c1sc(NCCOc2ccc(C)cc2)nc1C	0.686	3.9	-6.7	9.0	i	-4.7	2.4
COc1ccc(Cn2c(C3CC3)nc3ccc(NC(C)=O)cc3c2=O)cc1	0.735	-2.4	-4.2	3.9	nt	1.1	-6.2
Oc1ccc(NCc2cccc(OCc3ccc(F)cc3)c2)cc1	0.631	nt	-6.5	-2.8	i	-2.5	2.2
Cc1ccc(C(=O)OC(C)C(=O)NC2CCCCC2)cc1S(=O)(=O)N1CCCCC1 (stereo unspecified)	0.706	nt	1.9	3.3	i	-1.9	nt
C=C1C[C@@]23CCC4[C@@](C)(CCC[C@@]4(C)C(=O)OC)C2CC[C@]1(OC(C)=O)C3 (stereo partly specified)	0.67	1.0	10.5	1.3	i	-3.9	2.1
O=[N+]([O-])c1cnc(Nc2ccc(Cl)cn2)c([N+](=O)[O-])c1	0.649	-13.5	2.2	5.5	i	10.2	2.2
COCc1cc(C)nc2sc(C(=O)Nc3ccc(OC)cc3)c(N)c12	0.676	nt	-0.1	-74.5	i	-0.2	-1.0
S=c1[nH]nc(Cc2cccs2)n1-c1ccccc1Cl	0.708	74.2	12.5	1.3	i	2.0	-2.3
COc1ccccc1CCN=C(N)NS(=O)(=O)c1cccs1	0.673	-2.9	-1.4	3.8	i	0.6	2.7
Cc1cc(C)c(C(=O)C(C)OC(=O)Cn2cnc3c2c(=O)n(C)c(=O)n3C)cc1C (stereo unspecified)	0.657	55.0	0.7	2.7	i	-3.6	-12.1
CCCN1CCN(S(=O)(=O)c2ccc3c(c2)CCC(=O)N3)CC1	0.714	nt	-12.6	4.1	i	4.5	3.2
Cc1cnc(C(=O)OCC(=O)N(C(C)C)C(C)C)cn1	0.728	0.8	2.7	3.1	nt	-2.3	-3.6
COc1ccc(NC(=S)NCCCc2ccccc2)cc1	0.659	-1.5	-4.2	2.2	i	2.6	-0.6

Following part.
SMILES	Ecoli growth	ALR inh	B2AR ag	UCH37 inh	FGF22 binding	HNF4A DNA FP	LANA-H2B inh
COc1ccc(NC(=O)Nc2cccc(C)n2)cc1	0.685	-8.4	-8.2	1.1	i	4.2	4.5
COc1cc(/C=C2\SC(=Nc3ccccc3)N(CCc3c[nH]c4ccccc34)C2=O)ccc1OC(C)C(=O)O (stereo unspecified)	0.646	53.8	19.1	5.5	nt	-3.3	-8.6
N#Cc1nc(COc2ccccc2F)oc1N1CCCCCC1	0.7	-5.6	-5.5	2.0	nt	4.0	3.8
Cc1cc(NC(C)C)n2c(nc3ccccc32)c1C#N	0.673	-3.8	3.3	i	i	13.7	0.6
COc1cccc(/C=C2/Oc3ccccc3N(CC(=O)NCC3CCCO3)C2=O)c1 (stereo unspecified)	0.704	1.0	4.3	i	nt	2.5	-4.6
CCCCC(=O)OCc1cn(-c2ccc(Cl)cc2)nn1	0.685	-14.2	6.1	4.6	nt	2.7	-0.1
O=C1CCc2cc(S(=O)(=O)Nc3ccc(C(F)(F)F)cc3)cc3c2N1CC3	0.692	-0.7	12.4	3.8	i	6.1	-3.5
COc1ccc(CNC(=O)COC(=O)c2ccc(OCc3c(C)noc3C)cc2)cc1OC	0.707	-4.2	11.8	0.1	i	-4.5	5.8
COc1ccc2nc(C)c(C(=O)NN)cc2c1	0.72	70.9	0.1	-8.0	nt	0.9	0.3
C=C(C)CN(CC)Cc1c(C(=O)N(C)CCCC)nc2ccccn12	0.649	nt	5.4	2.3	i	3.6	-2.8
CCn1c(=O)c(C(=O)Nc2ncccc2C)c(O)c2ccccc21	0.693	6.7	-96.0	-0.6	i	-0.3	2.6
COc1ccccc1N1CCN(C(=O)C2CCCN(S(=O)(=O)c3ccc4c(c3)CCCN4C(C)=O)C2)CC1 (stereo unspecified)	nt	10.5	1.6	nt	i	2.4	-0.5
COc1ccc(S(=O)(=O)Cc2ccc(C(=O)NC3CCCCCC3)o2)cc1	0.638	4.4	0.5	-0.5	i	-3.6	-2.1
COc1ccc(/C=C2\CCCC3C2=NC(=S)NC3c2ccc(OC)cc2)cc1 (stereo unspecified)	0.685	nt	-2.1	0.3	nt	-2.8	-0.1
C=C(C)Cc1c(C)nc(-c2ccccc2)[nH]c1=O	0.66	-12.2	-0.5	1.5	nt	-1.6	-3.8
O=C(Nc1ccc(-c2nc3cc(Cl)ccc3c(=O)o2)cc1)c1ccco1	0.694	6.9	-9.8	-172.1	nt	-3.6	5.4

Screening data from PubChem BioAssay.

Some of the compounds tested; the hit share may differ from the screen's.
